StopGo reporter: FMDV 2A StopGo reporter, luciferase signal; Potency, µM (series often up to 57.9 µM), for inactives: at the top dose signal change, negative = less light; 1.2% of 410,000 active; human cells with a luciferase reporter of 2A StopGo recoding; control for the full effect not named in the record; active = well fitted falling curve with a large enough effect; inconclusive = small, poorly fitted or top-dose-only effect; inactive = no such curve, though single readings can be large or run the other way; tested in HEK293T cells; note: % is set by controls: 0 for no effect and ±100 for the full control effect; nearly all actives have a fitted effect of over 45% in size; luciferase light after 4 h
SARS PLP yeast: blocks SARS-CoV papain-like protease in a yeast assay; S. cerevisiae expressing SARS-CoV PLpro, growth rescue; control for the full effect not named in the record; Potency, µM (highest dose often 32.9 µM), without a hit: top-dose activity, positive = growth rescue; 0.19% of 330,000 active; active means well fitted rising curve with a large enough effect; inconclusive means small, poorly fitted or top-dose-only effect; inactive means no such curve, though single readings can be large or run the other way; note: 0% is about no effect; nearly all actives have a fitted effect of over 55% in size; growth read by luminescence after 48 h
Marburg entry inh: Marburg virus entry inhibition; AID 540276; Marburg virus pseudotyped entry inhibition, cell reporter; control for the full effect not named in the record; about a third of the inactives were read at about 46 µM; 1.8% of 300,000 active; Potency, µM (highest dose often 37.8 µM), without a hit: at the top dose activity change, negative = inhibition, actives largely listed as inhibitors; active = well fitted inhibition curve with a large enough effect; inconclusive = small, poorly fitted or top-dose-only effect, or effect the other way; inactive = flat fitted curve, though single readings scatter; tested in HEK293 cells; about a fifth of its hits are not listed in these tables; note: % is set by controls: 0 for no effect and ±100 for the full control effect; luciferase read-out
Cruzain Triton: blocks cruzain activity in presence of Triton detergent; Potency, µM, inactives show max response, negative = inhibition, usual class: inhibitors; 0.43% of 200,000 active; purified cruzain, Z-FR-AMC fluorescence, 0.01% Triton; AID 1478; P25779;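 note: plate controls were neutral wells for no effect and buffer without enzyme for full effect; nearly all actives have a fitted effect of over 40% in size; top concentration of the series not given in the record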
Target sequence (P25779 123-467 limits assumed): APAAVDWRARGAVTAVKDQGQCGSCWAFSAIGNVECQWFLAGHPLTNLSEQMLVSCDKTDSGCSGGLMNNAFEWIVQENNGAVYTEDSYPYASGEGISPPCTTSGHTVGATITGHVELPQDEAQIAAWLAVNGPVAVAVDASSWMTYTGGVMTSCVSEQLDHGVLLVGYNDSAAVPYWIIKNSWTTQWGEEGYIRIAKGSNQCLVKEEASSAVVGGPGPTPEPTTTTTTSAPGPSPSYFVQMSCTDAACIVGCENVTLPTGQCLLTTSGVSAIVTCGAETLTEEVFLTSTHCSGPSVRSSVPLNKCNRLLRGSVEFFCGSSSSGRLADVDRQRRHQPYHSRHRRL
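Z-FR-AMC hydrolysis (2 uM substrate) by cruzain (1.5 nM) monitored kinetically at ex 360/em 450 nm after 15 min room-temperature compound exposure; 0.01% Triton X-100, pH 5.5, 5 mM DTT.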
LASV entry inh: Lassa virus entry inhibition; Lassa virus pseudotype entry inhibition, cell reporter; control for the full effect not named in the record; Potency, µM (doses to about 37.9 µM), inactives show at the top dose activity change, negative = inhibition, usual class: inhibitors; 1.2% of 300,000 active; AID 540256; active means well fitted inhibition curve with a large enough effect; inconclusive means small, poorly fitted or top-dose-only effect, or effect the other way; inactive means flat fitted curve, though single readings scatter; tested in HEK293 cells; note: % is set by controls: 0 for no effect and ±100 for the full control effect; nearly all actives have a fitted effect of over 50% in size; luciferase read-out
Cruzain noTriton: inhibitors of Trypanosoma cruzi cruzain without detergent; 2.3% of 200,000 active; purified cruzain, Z-FR-AMC fluorescence, no detergent; P25779; Potency, µM, for inactives: max response, negative = inhibition, most hits filed as inhibitors; AID 1476;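 note: plate controls were enzyme without inhibitor for no effect and buffer without enzyme for full effect; nearly all actives have a fitted effect of over 40% in size; top concentration of the series not given in the record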
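Purified cruzain at 1.5 nM, pre-incubated 15 min with compound at room temperature in 100 mM sodium acetate pH 5.5, 5 mM DTT, 0.00005% Triton X-100. Reaction started with 2 uM Z-FR-AMC; AMC fluorescence increase over 60 s gives rate.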
NS1 inh: blocks influenza NS1 protein function; S. cerevisiae slowed by influenza A NS1, growth recovery by OD600; Potency, µM (top dose mostly 46.1 µM), for the others: at the top dose activity, positive = more growth; 0.4% of 270,000 active; AID 2326; active means well fitted rising curve with a large enough effect; inconclusive means small, poorly fitted or top-dose-only effect; inactive means no such curve, though single readings can be large or run the other way; note: nearly all actives have a fitted effect of over 50% in size
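A cell-based growth assay was used: compounds that relieve NS1-induced slow growth of budding yeast raise OD600. Assay medium was yeast nitrogen base with ammonium sulphate and -URA supplement, pH 6.0, with 2% galactose.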
RE007 growth inh: less growth of the S. pombe RE007 Vpr strain; S. pombe RE007 Vpr strain, BacTiter-Glo ATP luminescence, 24 h; control for the full effect not named in the record; Potency, µM (doses to about 92.2 µM), for inactives: top-dose activity change, negative = less growth; 0.21% of 360,000 active; active = well fitted falling curve with a large enough effect; inconclusive = small, poorly fitted or top-dose-only effect; inactive = no such curve, though single readings can be large or run the other way;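 note: % is set by controls: 0 for no effect and ±100 for the full control effect; nearly all actives have a fitted effect of over 50% in size; the assay follows cell death caused by Vpr and the record does not say whether a fall means rescue or toxicity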
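Fission yeast RE007 carrying one integrated HIV-1 vpr copy, seeded at OD 0.01 in PMG+AL medium with 23 nL pinned compound. Grown 24 h at 30 degrees; viability read by BacTiter-Glo luminescence after 5 min.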
Numbers without * were called inactive; ? = inconclusive; . = no result given; [ ] = another dose, or the depositor's remark. Unless noted, calls come from the whole dose curve; as a rule, active = well fitted curve in the direction sought with a large enough effect; inconclusive = small, poorly fitted or top-dose-only effect, or another doubt; inactive = no such curve, though single readings can be large; an effect the other way counts as inactive or inconclusive. Potency is the fitted concentration of half-maximal effect.

SMILES	StopGo reporter	SARS PLP yeast	Marburg entry inh	Cruzain Triton	LASV entry inh	Cruzain noTriton	NS1 inh	RE007 growth inh
CCn1c(SCC(=O)N2CCN(c3ccccc3)CC2)nc2c(c1=O)SC(C)C2 (stereo unspecified)	?	-2.2%	.	-13.1%	.	26.1%	-41.6%	-1.0%
O=S(=O)(NCc1ccc(F)cc1)c1ccc2c(c1)OCCO2	71.5%[activator]	-0.5%	-4.3%	1.4%	12.9%	2.8%	-5.3%	-5.9%
O=C(Nc1nc(-c2cccc3ccccc23)cs1)c1cnccn1	-28.2%	3.7%	12.6%	-3.0%	?	26.8%	23.4%	.
O=c1[nH]c(=S)n(Cc2ccc(F)cc2)c(O)c1C=NCCCn1ccnc1	-24.2%	0.4%	?	.	-2.7%	.	-7.0%	16.5%
CCOC(=O)c1c(-c2ccc(F)cc2)csc1NC(=O)C1CCCO1 (stereo unspecified)	-27.1%	-1.9%	-28.3%[46.1 µM]	.	-20.5%	.	-2.4%	5.2%
O=S(=O)(c1ccc(-n2cnnn2)cc1)N1CCN(c2cccc(C(F)(F)F)c2)CC1	-2.5%	.	-0.9%[46.1 µM]	-1.3%	2.8%[46.1 µM]	?	.	.
COc1cc2c(cc1OC)C1=C(C#N)CCC(=O)N1CC2	6.5%	-21.2%	-3.3%[46.1 µM]	-0.4%	8.4%	-20.7%	5.6%	-17.8%
COc1ccc(Nc2nc(C(F)(F)F)nc(C)c2C#N)cc1	-23.1%	13.3%	6.4%	-3.9%	-3.8%	1.1%	-4.1%	-21.1%
Cc1ccc(-c2nn(-c3ccccc3Cl)cc2C(=O)NCC2CCCO2)cc1 (stereo unspecified)	-8.4%	-0.4%	-20.5%	.	-2.1%	.	.	-1.7%
CS(=O)(=O)N1CCC(C(=O)c2cccc(Cl)c2)CC1	9.2%	-4.3%	-1.5%	2.4%	10.4%[14.3 µM]	-2.5%	7.0%	-10.3%
CC(C)(C)NC(=O)Cn1c(SCC(=O)NC2CC2)nc2ccccc21	15.7%	1.4%	.	.	.	.	9.0%	-11.2%
Cc1ccc(S(=O)(=O)N2CCN(C(=O)CSc3nc(N)cc(=O)[nH]3)CC2)c(C)c1	-20.9%	0.7%	26.4%[46.1 µM]	.	-0.3%	.	4.9%	2.7%
C=CCc1cccc(/C=N/NC(=O)CNc2cccc3ccccc23)c1O	-13.8%	-58.9%	-1.8%	-9.0%	?	?	6.5%	9.9%
CC(=O)Nc1nc2ccccc2n1Cc1ccccc1Cl	?	1.3%	?	.	-9.3%	.	-3.6%	4.5%
CC(=O)N1CCN(C(=O)CCN(c2ccccc2)S(=O)(=O)c2ccc(C)cc2)CC1	5.4%	-0.1%	-4.6%[46.1 µM]	.	1.0%	.	.	22.3%
O=C(CSc1nnc(C2CC2)n1-c1ccccc1)NCc1ccco1	8.5%	4.9%	0.9%	3.5%	-1.1%	4.6%	-0.3%	23.9%
CC(C)CC(NC(=O)C1CCC(C)CC1)C(=O)OCC(=O)c1ccc(Cl)cc1 (stereo unspecified)	-12.4%	.	-1.1%[46.1 µM]	-24.3%	-2.5%[46.1 µM]	0.4%	.	.
COc1ccc(NC(=O)CSc2nc3ccccc3nc2Cc2ccc(C)cc2)cc1Cl	-0.4%	.	.	2.9%	13.2%[46.1 µM]	-11.3%	.	.
CC(C)C(=O)Nc1ccc(N2CCN(C)CC2)c(F)c1	29.6%	-1.0%	21.8%[46.1 µM]	.	4.4%	.	4.9%	-2.4%
CCc1ccc2oc(-c3ccc(NC(=O)c4cc5ccccc5o4)cc3)nc2c1	-17.9%	.	.	0.3%	2.3%[46.1 µM]	-4.5%	.	.
Cc1nc2cc(-c3ccccc3)ccc2o1	44.8%[activator]	6.2%	?	-1.0%	-0.3%	-0.2%	-12.6%	6.6%
CC(=O)Nc1ccccc1-c1nc2ccccc2n(CC(=O)Nc2cccc(C(F)(F)F)c2)c1=O	-5.3%	.	-14.1%[46.1 µM]	-0.1%	?	2.0%	.	.
CN1C(=S)N(c2ccccc2)C(=O)/C1=C/c1ccco1	-6.3%	4.9%	-13.5%	-6.2%	0.2%	-14.7%	3.3%	?
O=C(NC1CCCC1)c1cc2nc(-c3ccco3)cc(C(F)(F)F)n2n1	-12.8%	-3.4%	15.6%[46.1 µM]	.	-0.8%	.	-16.0%	-16.2%
COc1cc(/C=C/C(=O)OCC(=O)N(C)C2CCS(=O)(=O)C2)ccc1OC(F)F (stereo unspecified)	-8.9%	0.6%	-7.5%	.	16.1%	.	-6.0%	-0.9%
Cc1ccc(-n2c(/C=C\c3ccc(F)cc3)nc3ccccc3c2=O)cc1Cl	-5.2%	.	.	0.6%	8.7%[46.1 µM]	6.1%	.	.
COC(=O)/C(=N/Nc1ccccc1)N1CCCc2ccccc21	-25.7%	9.1%	?	-7.2%	-17.5%	3.0%	-4.7%	84.4%
O=C(Cc1ccccc1)NC1c2ccccc2-c2ccccc21	-9.6%	-17.3%	8.2%[46.1 µM]	5.0%	0.0%	?	0.6%	2.7%
Cc1cc(C)c2c(C)c(C(=O)NCc3ccc(S(N)(=O)=O)cc3)oc2c1	-9.3%	-0.2%	?	.	-7.7%	.	8.5%	12.8%
Cc1cc(-c2cc(C)c(N)cc2C)c(C)cc1N	-14.0%	.	?	.	-10.9%[46.1 µM]	.	.	-19.3%
CCCNC(=O)COC(=O)c1ccccc1OCc1ccc(Cl)cc1	12.5%	-8.6%	13.0%	-9.0%	-7.0%	7.9%	-63.9%	-1.4%
CCc1ccc(NC(=O)c2sc3nc(C)cc(C)c3c2NC(=O)c2ccccc2)cc1	3.1%	.	19.6%[46.1 µM]	-0.3%	7.4%[46.1 µM]	14.0%	.	.
Cc1cccc2cc3c(N)c(C(=O)Nc4ccc(N5CCOCC5)cc4)sc3nc12	.	-8.7%	?	-3.2%	13µM*	?	0.6%	-21.4%
Cc1ccc(C(=O)NNC(=O)C2CCN(C(=O)OC(C)(C)C)CC2)cc1	5.1%	6.5%	.	.	.	.	-8.4%	6.5%
O=Cc1cn(CC(=O)N2CCc3ccccc32)c2ccccc12	-13.0%	1.4%	13.8%	.	-24.7%	.	.	18.2%
COc1ccccc1CNC(=O)CSc1nnc(C)c2c(C)n(-c3ccccc3)nc12	?	.	.	-6.2%	-24.7%[46.1 µM]	-3.1%	.	.
COc1cccc(-c2nc(-c3cccs3)no2)c1	?	-1.9%	?	.	?	.	-6.6%	-26.0%
CCN(c1ccc(Cl)cc1)S(=O)(=O)c1nnc(NC(=O)c2ccccc2C)s1	-23.5%	.	.	-6.3%	?	?	.	.
O=C(c1ccc(-c2nc3ccccc3s2)o1)N1CCN(c2ccccc2O)CC1	?	-13.1%	?	.	?	.	-30.2%	-8.6%
Cc1ccccc1NC(=O)c1c(C)oc2ccc(O)c(CN3CCCCCC3)c12	-21.1%	.	?	-4.2%	-20.9%[46.1 µM]	-22.3%	.	.
CCOc1ccc(N2Cc3ccccc3C2)cc1	31.9%[activator]	-0.8%	?	3.7%	-0.7%	15.8µM*	-9.1%	4.9%
Cc1ccc(C(=O)N2CCN(c3ncccn3)CC2)o1	-8.8%	9.7%	-13.1%	4.9%	15.0%	0.7%	4.1%	-10.6%
C=CCn1cnc2c(NCc3ccccc3)ncnc21	15.9%	4.6%	?	6.3%	14.9%	-11.8%	2.5%	16.7%
COc1ccc(OC)c(CCNC(=O)C(C)n2c(C)c3cnn(-c4ccccc4)c(=O)c3c2C)c1 (stereo unspecified)	-18.8%	.	-43.2%[46.1 µM]	-4.4%	1.1%[46.1 µM]	?	.	.
Cc1ccc(C(c2nnnn2C(C)(C)C)N2CCN(C3CCCC3)CC2)cc1 (stereo unspecified)	-6.1%	4.8%	4.8%[46.1 µM]	2.9%	12.0%	-4.8%	-5.7%	-6.3%
COc1ccc(/C(C)=N/NC(=O)c2nnn(-c3nonc3N)c2-c2ccccc2)cc1	16.4%	-0.8%	?	.	-1.8%[46.1 µM]	.	-9.5%	-9.7%
CCCc1nnc(NC(=O)Cn2cnc3ccccc3c2=O)s1	.	-2.5%	7.6%	0.9%	7.2%	2.3%	-3.7%	15.9%
COc1ccc(CNC(=O)CNC(=O)[C@@H]2Cc3ccccc3CN2)cc1	-21.6%	-4.7%	.	.	.	.	7.7%	21.3%
Nc1ncc2c(n1)CC(c1ccco1)CC2=O (stereo unspecified)	-11.9%	7.7%	?	-1.3%	9.2%	-6.6%	-10.5%	-6.6%
Cc1ccc(NC(=O)C2=C(O)c3sccc3N(C)S2(=O)=O)cc1	24.5%	-4.7%	0.5%	-10.3%	-2.6%	-1.5%	10.2%	1.5%
COc1ccc2c(C=O)c[nH]c2c1	13.8%	-7.6%	0.3%	1.1%	9.7%	-3.4%	0.4%	-1.4%
COc1ccc2cc(C(=O)N/N=C/c3sc4ccccc4c3O)ccc2c1	?	5.01µM*	?	28.2µM*	?	?	13.9%	-1.0%
CCOC(=O)c1cc(C)n(CC2CCC(C(=O)Nc3ccc(C)cc3)CC2)c1C (stereo unspecified)	-28.8%	.	.	-8.2%	7.9%[46.1 µM]	5.8%	.	.
Cc1nc(N2CCc3ccccc3C2)[nH]c(=O)c1Cc1ccccc1	-5.8%	-1.4%	19.3%[46.1 µM]	.	8.8%[46.1 µM]	.	4.7%	-1.5%
CCOc1ccc(-c2nnn(CC(=O)N3CCCC(C)C3)n2)cc1 (stereo unspecified)	-7.9%	0.9%	.	.	.	.	-9.2%	-6.5%
O=C(c1ccc(-c2ccccc2)cc1)C1CCCN(Cc2ccncc2)C1 (stereo unspecified)	?	-1.7%	?	.	?	.	-1.8%	3.3%
COc1ccc(/C=C(\C#N)C(=O)N2COCC2(C)C)cc1	13.1%	-0.3%	.	.	.	.	-9.9%	-13.2%
COc1ccc(/C=c2/sc3n(c2=O)NC2(c4ccccc4)N(C)C(=O)N(C)C2(c2ccccc2)N=3)cc1 (stereo unspecified)	-10.4%	16.5%	?	-0.5%	-0.3%	?	6.4%	1.7%
CC(C)(C)c1ccc(C(=O)NCCOc2ccccc2)cc1	20µM*	11.9%	1.58µM*	.	?	.	-5.4%	3.7%

The order is random. Share with any hit: about 4.7%.
